Bioassay records from PubChem BioAssay.
PKD1 inh: PKD1 (human) kinase inhibition; Q15139; PKD1 kinase fluorescence polarization assay; inhibition, %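 (about 10 µM by stock and volumes)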; 0.056% of 200,000 active;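 active = inhibition of 50% or more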;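 also: controls were vehicle for no effect and a reference inhibitor for full effect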
Target sequence (Q15139 whole entry, looked up): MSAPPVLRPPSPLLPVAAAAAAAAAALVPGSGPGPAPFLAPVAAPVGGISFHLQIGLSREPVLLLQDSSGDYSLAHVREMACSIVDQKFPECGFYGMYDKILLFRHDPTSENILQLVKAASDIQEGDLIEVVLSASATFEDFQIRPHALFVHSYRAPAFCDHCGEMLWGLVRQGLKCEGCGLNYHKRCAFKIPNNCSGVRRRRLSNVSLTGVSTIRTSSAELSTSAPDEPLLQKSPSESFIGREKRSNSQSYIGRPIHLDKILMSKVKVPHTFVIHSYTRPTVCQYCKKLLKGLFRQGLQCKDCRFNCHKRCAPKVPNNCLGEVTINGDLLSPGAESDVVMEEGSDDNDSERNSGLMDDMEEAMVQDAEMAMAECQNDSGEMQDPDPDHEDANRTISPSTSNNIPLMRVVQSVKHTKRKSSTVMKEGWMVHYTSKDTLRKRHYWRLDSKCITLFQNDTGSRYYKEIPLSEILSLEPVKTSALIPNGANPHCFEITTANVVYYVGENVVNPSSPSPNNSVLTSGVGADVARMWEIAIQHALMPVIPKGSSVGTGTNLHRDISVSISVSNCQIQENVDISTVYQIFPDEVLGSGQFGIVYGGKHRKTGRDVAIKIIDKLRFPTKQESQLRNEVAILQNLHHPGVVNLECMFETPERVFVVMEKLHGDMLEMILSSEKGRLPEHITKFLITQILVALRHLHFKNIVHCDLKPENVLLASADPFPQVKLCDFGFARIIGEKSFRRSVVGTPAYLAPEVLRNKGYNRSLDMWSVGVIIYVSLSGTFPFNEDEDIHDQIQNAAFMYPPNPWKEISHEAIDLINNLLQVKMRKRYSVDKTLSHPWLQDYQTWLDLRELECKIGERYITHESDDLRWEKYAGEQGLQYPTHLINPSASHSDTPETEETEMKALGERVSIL
RGS16-Gao: RGS16-Galphao interaction regulator (human); bead-based flow cytometry RGS16-Galphao binding, fluorescence; actives lie on both sides; 0.38% of 220,000 active; binding response (% of control), % at 10 µM; AID 1441; O15492+P09471;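 active = below 25% or above 175%, edge rows of some plates excepted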;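 also: Galphao activated by GDP with aluminum fluoride before binding; 100% = wells without compound and 0% = beads without RGS; some results beyond the cut were filed as inactive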
HSV augment: increases HSV replication in cells. HSV replication augmentation in cells, fold increase. maximum fold increase. 0.005% of 220,000 active;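 active = peak rise of 1.5-fold or more in the series; inconclusive = self-fluorescent or not available for retest; tested in PC3 cells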;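 also: first round at 10 µM; read as green reporter fluorescence; hits show the peak of a series up to 25 µM; 1 = signal of infected wells without compound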
INS promoter inh: TRM-6 insulin promoter activity inhibition; inhibition, % at 2 µM; TRM-6 cells (human fetal islet line), insulin promoter-eGFP reporter, imaging; reporter expression induced with tamoxifen; 0.9% of 130,000 active;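 active = inhibition above the mean plus 3 SD, with well images judged a real hit on visual review, cut at about 60% in these data, passing the limit was not always enough; inconclusive = inhibition over the cutoff but images rejected on review; inactive = inhibition not above the cutoff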
GALR2 ag: GALR2 (human) receptor agonism. O43603. GALR2-expressing cells, agonist activation read-out. activation, %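 (tested at 5 µM)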. 0.48% of 140,000 active;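 active = above mean plus 3 SD of all compounds, about 5% in these data, not always enough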;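 also: 0% = vehicle buffer wells and 100% = reference agonist at full effect; tested in CHO reporter cells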
INS promoter inh cell count: second read-out of INS promoter inh, no call of its own (marks repeat the call); normalized cell count, %; measured here: cell count, toxicity; reference of the scale not given here;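 cells exposed to compound for 48 h; stained nuclei by imaging scaled within each plate; lower means fewer cells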
HSV augment primary fold: second read-out of HSV augment, no call of its own (marks repeat the call); fold increase; compound at 10 µM; measured here: primary screen fold increase 10 uM; tested in PC3 cells;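 GFP signal in the first replicate; 1 = infected wells without compound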
* hit, by the source's call; i = inactive; ? = inconclusive; / = not tested or not shown.

SMILES | PKD1 inh | RGS16-Gao | HSV augment | HSV augment primary fold | INS promoter inh | INS promoter inh cell count | GALR2 ag
CC1CCN(c2nc3ccc(C(=O)N4CCN(Cc5ccc6c(c5)OCO6)CC4)cc3s2)CC1 | -3.7 | 100.9 | / | / | / | / | -1.3
CCOc1ccc(NC(=O)NC(=O)N(C(C)C)S(C)(=O)=O)cc1 | -8.2 | 106.1 | i | 1.02 | / | / | /
CCOC(=O)C1CCN(S(=O)(=O)c2ccc(C)c(C)c2)CC1 | -0.6 | 102.1 | i | 0.99 | -206.2 | 107.1 | /
CC(=O)NCc1ccc(C(=O)CCl)cc1 | -4.3 | 95.3 | i | 0.88 | / | / | /
Cc1ccccc1/C=C/c1nc2ccccc2c(=O)n1CCc1ccccc1 | 1.6 | 97.3 | i | 1.08 | / | / | -0.2
CCNC(=O)CC1SC(=Nc2cccc(Cl)c2C)N(C)C1=O (centres undefined) | -14.7 | 64.2 | i | 0.91 | 52.0 | 129.3 | -2.1
CCOC(=O)C1(CC2CC2)CCN(C(=O)c2cc(C3CC3)nc3ccccc23)CC1 | -0.1 | 99.7 | i | 0.92 | / | / | /
Cc1cccc(C)c1NC(=O)CSc1nnc(Cc2ccccc2)o1 | -0.8 | 107.6 | i | 0.91 | 31.2 | 126.7 | -0.6

Two entries drawn at random from those above:
SMILES | PKD1 inh | RGS16-Gao | HSV augment | HSV augment primary fold | INS promoter inh | INS promoter inh cell count | GALR2 ag
Cc1ccccc1/C=C/c1nc2ccccc2c(=O)n1CCc1ccccc1 | 1.6 | 97.3 | i | 1.08 | / | / | -0.2
CCOC(=O)C1CCN(S(=O)(=O)c2ccc(C)c(C)c2)CC1 | -0.6 | 102.1 | i | 0.99 | -206.2 | 107.1 | /

Five of the entries above in order of their number in RGS16-Gao, ascending.
SMILES | PKD1 inh | RGS16-Gao | HSV augment | HSV augment primary fold | GALR2 ag
CCNC(=O)CC1SC(=Nc2cccc(Cl)c2C)N(C)C1=O (centres undefined) | -14.7 | 64.2 | i | 0.91 | -2.1
Cc1ccccc1/C=C/c1nc2ccccc2c(=O)n1CCc1ccccc1 | 1.6 | 97.3 | i | 1.08 | -0.2
CCOC(=O)C1(CC2CC2)CCN(C(=O)c2cc(C3CC3)nc3ccccc23)CC1 | -0.1 | 99.7 | i | 0.92 | /
CC1CCN(c2nc3ccc(C(=O)N4CCN(Cc5ccc6c(c5)OCO6)CC4)cc3s2)CC1 | -3.7 | 100.9 | / | / | -1.3
Cc1cccc(C)c1NC(=O)CSc1nnc(Cc2ccccc2)o1 | -0.8 | 107.6 | i | 0.91 | -0.6

The listing continues:
SMILES | PKD1 inh | RGS16-Gao | HSV augment | HSV augment primary fold | INS promoter inh | INS promoter inh cell count | GALR2 ag
CCOC(=O)C1=NOC(Cn2cc(C#N)c(=O)n(C)c2=O)C1 (centres undefined) | -6.2 | 99.0 | i | 1.01 | 36.4 | 106.1 | /
O=C(c1ccc2c(c1)OCO2)[C@@H]1[C@@H]2C(=O)N(C3CCCCC3)C(=O)[C@@H]2C2c3ccccc3C=CN21 (some centres undefined) | -5.7 | 101.5 | i | 1.17 | / | / | -2.5
COC(=O)CSc1nc(C)c(C(=O)Nc2ccccc2C)c(-c2ccc(Cl)cc2)c1C#N | 6.6 | 125.8 | i | 0.87 | -11.8 | 73.7 | 0.0
Cc1ccc(NC(=S)N(CCN2CCOCC2)Cc2cc3cc4c(cc3[nH]c2=O)OCCO4)cc1 | / | 106.0 | i | 1.02 | / | / | /
CCOc1ccccc1C(=O)Nc1ccc(-n2nncc2C(C)(C)C)cc1 | 2.2 | 104.7 | i | 0.94 | -63.0 | 116.1 | /
CC(C)c1ccccc1NC(=O)COC(=O)CCN1C(=O)/C(=C\C=C\c2ccccc2)SC1=S | -5.4 | 99.9 | i | 0.87 | 26.7 | 205.7 | -0.6
COc1ccccc1-c1n[nH]c2c1[C@H](C)CC[C@H]2C(C)C | 4.4 | 104.1 | i | 0.97 | / | / | -1.6
CN1CCN(S(=O)(=O)c2cccc([N+](=O)[O-])c2)CC1 | 9.6 | / | i | 0.9 | 0.0 | 122.4 | -2.2
N#Cc1nc(COc2ccc(Cl)cc2)oc1N1CCN(Cc2ccccc2)CC1 | -2.2 | 100.5 | i | 1.15 | / | / | -2.5
Cc1cc(C(C)(C)C)cc(S(=O)(=O)Nc2ccc(C(=O)O)cc2)c1C | -4.1 | 101.8 | i | 0.86 | 14.3 | 122.5 | /
COc1ccc(OC)c(Nc2nc(-c3sc(NC(=O)CC(C)C)nc3C)cs2)c1 | -4.2 | 102.3 | i | 1.24 | -24.4 | 127.2 | 1.1
O=C1NN(c2ccc(Cl)c(Cl)c2)C(=O)/C1=C/c1cccc(OC(=O)c2cccs2)c1 | -9.8 | 93.3 | i | 0.97 | 52.1 | 94.2 | 0.2
CCOC(=O)c1c(C)[nH]c(C(=O)OCCOc2ccc(Cl)cc2)c1C | -0.4 | 79.8 | i | 1.03 | -13.3 | 81.0 | -0.8
CC(C)(C)S(=O)(=O)c1ccc2nc3c(n2c1)CCCC3 | 10.0 | 99.5 | i | 0.92 | 17.1 | 47.9 | -1.1
CC(C)n1c(=O)c2c(O)cc(=O)oc2c2ccccc21 | 3.2 | 88.1 | i | 1.07 | 43.9 | 60.2 | -1.1
Cc1nc(-c2ccc(S(=O)(=O)N3CCN(Cc4ccccc4)CC3)s2)cs1 | / | 101.4 | i | 1.07 | / | / | /

Arranged by length of the SMILES (high to low): part of the list above.
SMILES | PKD1 inh | RGS16-Gao | HSV augment | HSV augment primary fold | INS promoter inh | INS promoter inh cell count | GALR2 ag
Cc1cc(C(C)(C)C)cc(S(=O)(=O)Nc2ccc(C(=O)O)cc2)c1C | -4.1 | 101.8 | i | 0.86 | 14.3 | 122.5 | /
N#Cc1nc(COc2ccc(Cl)cc2)oc1N1CCN(Cc2ccccc2)CC1 | -2.2 | 100.5 | i | 1.15 | / | / | -2.5
CC(C)n1c(=O)c2c(O)cc(=O)oc2c2ccccc21 | 3.2 | 88.1 | i | 1.07 | 43.9 | 60.2 | -1.1

Continuation:
SMILES | PKD1 inh | RGS16-Gao | HSV augment | HSV augment primary fold | INS promoter inh | INS promoter inh cell count | GALR2 ag
O=C(/C=C/c1ccc([N+](=O)[O-])cc1)NCC1CCCO1 (centres undefined) | -21.5 | 100.1 | i | 0.99 | -20.7 | 49.8 | -0.6
CC(C)(CNS(=O)(=O)c1ccc(F)cc1)CNS(=O)(=O)c1ccc(F)cc1 | -1.2 | 103.8 | i | 0.78 | -16.2 | 167.6 | -1.7
CCN(CC)S(=O)(=O)c1ccc(C)c(NC(=O)Cn2cnc3cc([N+](=O)[O-])ccc3c2=O)c1 | 1.5 | 105.0 | i | 0.88 | -61.1 | 128.8 | /
O=C(CSc1ccc2nnc(-c3cccc(F)c3)n2n1)NCc1ccco1 | -5.3 | 61.5 | i | 0.79 | / | / | -0.9
COc1cc(/C=C/C(=O)c2c(O)cc(C)oc2=O)cc(OC)c1O | -4.0 | 112.1 | ? | / | 6.8 | 91.9 | -1.8
O=C(CSc1ncn[nH]1)NCCC(c1ccccc1)c1ccccc1 | -9.2 | 103.3 | i | 1.01 | -85.3 | 158.4 | -2.9
CCOC(=O)C1=C(C)NC(=O)NC1/C=C/c1ccccc1 (centres undefined) | -6.3 | 100.0 | i | 0.9 | / | / | -0.7
COc1cccc(NC(=O)CSc2nc3ccccc3n2C)c1 | -7.0 | 94.1 | i | 0.89 | / | / | /
CCOC(=O)COc1ccc(S(=O)(=O)Nc2ccc3c(c2)OCCO3)cc1 | -8.7 | 101.0 | i | 0.79 | -460.0 | 56.8 | -1.7
CN1C(=O)C2C(c3ccc(N(C)C)cc3)NN(Cc3ccccc3)C2C1=O (centres undefined) | 11.1 | 101.3 | i | 1 | 10.5 | 147.2 | /
COc1ccc(-c2nnc3c4ccccc4c(C)nn23)cc1S(=O)(=O)N1CCN(CCO)CC1 | -0.4 | 97.5 | i | 0.84 | -142.5 | 67.3 | -1.5
Cc1c(NS(=O)(=O)c2ccc(C(=O)NCc3ccccc3)cc2)c(=O)n(-c2ccccc2)n1C | 1.4 | 103.2 | i | 0.95 | / | / | /
O=C(CN1CCN(c2ccccc2)CC1)Nc1ccc2c(c1)CCC2 | -9.2 | 107.3 | i | 1 | -35.1 | 137.9 | -1.1
CCN(C(=O)c1cc2c(C)nc3ccccc3c2o1)c1cc(Cl)ccc1OC | / | 102.9 | i | 0.76 | / | / | /
COC(=O)c1ccccc1NC(=O)c1cc(-c2cccs2)on1 | 26.7 | 101.0 | i | 0.7 | 6.7 | 129.2 | -3.2
Cc1ccc(C2=NN(C(=O)c3ccco3)C(O)(C(F)(F)F)C2)cc1 (centres undefined) | -0.8 | 106.4 | i | 0.78 | 53.3 | 131.6 | /
COCCC(=O)N1CCCC(C(=O)c2ccc(Oc3ccccc3)cc2)C1 (centres undefined) | 0.7 | 99.4 | i | 0.96 | i | 66.8 | /
CC(OC(=O)c1ccncc1)C(=O)NC1CCCC1 (centres undefined) | 4.7 | 101.7 | i | 1.09 | -30.0 | 126.7 | /
O=S(=O)(Nc1ccc(-n2cccc2)cc1)c1ccc(F)cc1 | -5.4 | 97.3 | i | 0.92 | / | / | /
N#Cc1c2n(c3c(=O)n(Cc4ccccc4Cl)cnc13)CCCCC2 | 0.2 | 99.3 | i | 0.76 | 22.2 | 75.2 | -2.3
NS(=O)(=O)c1ccc(NC(=O)c2ccccc2Cl)cc1 | -0.1 | 102.4 | i | 0.92 | 64.3 | 121.1 | -2.3
CCCN1CCC(NC(=S)Nc2ccc([N+](=O)[O-])cc2)CC1 | -4.1 | 104.7 | i | 1 | / | / | /
Cc1ccc(NC(=O)Cn2cccc2)cc1 | 4.3 | 103.4 | i | 1.05 | -28.6 | 105.6 | /
CSc1c(CC(=O)Nc2ccccc2Cl)n(Cc2ccccc2)c2ccccc12 | -2.2 | 106.1 | i | 0.93 | / | / | -2.8
COC(=O)c1c(NS(=O)(=O)c2ccc3ccccc3c2)sc2c1CCCC2 | 2.2 | 89.1 | i | 1.11 | 34.3 | 98.2 | -6.4
Cc1ccc(-c2csc(NC(=O)c3cccs3)n2)cc1 | 1.0 | 102.9 | i | 0.96 | -13.3 | 43.2 | -2.4
COc1ccc(/C=N/NC(=O)C2(C)NC(C)(C)Cc3ccccc32)cc1 (centres undefined) | -3.3 | 107.9 | i | 0.92 | / | / | /
CCOc1ccccc1Nc1nc(N)nc(CN(C)C2CCCCC2)n1 | 1.0 | 99.3 | i | 0.83 | -38.5 | 122.0 | -1.8
CC1(C)C(=O)NCCN1C(=O)CCCC(=O)O | -4.5 | 125.2 | i | 0.96 | -26.8 | 61.1 | /
O=c1cc(CN2CCN(S(=O)(=O)c3ccccc3[N+](=O)[O-])CC2)nc2sccn12 | 1.3 | 99.0 | i | 0.98 | / | / | /
O=C(COC(=O)COc1ccccc1)NC1CCCc2ccccc21 (centres undefined) | 4.8 | 50.9 | i | 1.08 | / | / | 0.6
CCc1nc(NCCCn2ccnc2)c2oc3ccccc3c2n1 | 12.3 | 103.1 | i | 1.01 | 9.1 | 147.1 | -1.4
CC(C)NC(=S)N1CCN(C/C=C/c2ccccc2)CC1 | -3.4 | 96.3 | i | 0.95 | / | / | /
CCOC(=O)/C(C#N)=C1\Nc2ccccc2N=C1N(CC(C)C)CC(C)C | 8.3 | 105.9 | i | 0.99 | -35.7 | 149.0 | -2.0
Cc1c(C)n(CC(O)CNc2ccccc2)c2ccccc12 (centres undefined) | 2.9 | 101.6 | i | 0.84 | -89.7 | 136.2 | /
CCOC(=O)CN1C(c2ccccc2O)Nc2ccc(Br)cc2C1c1ccccc1 (centres undefined) | -9.4 | 72.3 | i | 0.94 | 0.0 | 128.2 | 0.7
Cc1ccc(C(=O)N2CCC(C(=O)NCc3cccnc3)CC2)cc1 | -3.1 | / | i | 0.97 | 37.9 | 67.4 | -3.1
O=C(O)CC1S/C(=N\N=C2CCCCCCC2)N(c2ccccc2)C1=O (centres undefined) | 1.6 | 99.7 | i | 0.93 | / | / | /
CCCNC(=O)CS(=O)Cc1nc(-c2ccc(OC)cc2)oc1C (centres undefined) | -6.5 | 98.7 | i | 0.82 | / | / | -3.3
COc1ccc(Cl)cc1NC(=O)N1CCC(C)CC1 | -8.3 | 98.7 | i | 0.97 | / | / | /
N/C(CC(=O)Nc1cccc(C(F)(F)F)c1)=N/O | 5.5 | 105.6 | i | 0.92 | / | / | -3.2
Cn1cnc([N+](=O)[O-])c1Sc1ccc(Br)cc1 | 0.8 | 106.7 | i | 0.67 | -12.5 | 77.8 | -2.4
COc1ccc(C)cc1S(=O)(=O)N(CC(=O)NCc1ccc(Cl)cc1)Cc1ccccc1 | -8.5 | 96.5 | i | 0.96 | -13.3 | 148.3 | -1.8
Cn1c(=O)n(Cc2ccccc2F)c2ccccc21 | -6.3 | 126.9 | i | 1.03 | -294.4 | 83.8 | -1.2
